Source: PubChem BioAssay
miR-21 reporter – raises the signal of a miR-21 reporter; HeLa miR-21 FLuc reporter, luciferase, 48 h; Potency, µM (top dose mostly 38.3 µM), for inactives: at the highest dose reporter change, positive = more light; 340,000 tested, under 10 active; AID 2288; active = well fitted rising curve with a large enough effect; inconclusive = small, poorly fitted or top-dose-only effect; inactive = no such curve, though single readings can be large or run the other way;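 further: % of control where 0% means no effect; miR-21 action dims this reporter so a rising signal means less miR-21 action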
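HeLa cells endogenously expressing miR-21, stably carrying CMV-driven firefly luciferase with a downstream miR-21 binding site, 2000 cells/well. Titrations up to approximately 40 uM, 48 hours; luciferase luminescence read.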
Numbers without * were called inactive; ? = inconclusive. A portion of the library; rates above refer to the full screens.

| SMILES | miR-21 reporter |
| --- | --- |
| Cc1ccc(NC(c2ccc(Cl)cc2)c2nnc(-c3cccc(F)c3)o2)cc1C (stereo not drawn) | -13% |
| COc1ccccc1C(=O)Nc1c(C(=O)Nc2ccc(C)cc2)oc2ccccc12 | 0% |
| O=C1CC(c2nc3ccccc3n2CCCOc2ccccc2)CN1c1ccc(F)cc1 (stereo not drawn) | 26% |
| Nc1c(C(=O)Nc2ccccc2)nnn1Cc1ccc(F)cc1Cl | -40% |
| Cc1oc(-c2cccc(Cl)c2)nc1CN1CCC(C(=O)NC(C)C)CC1 | 3% |
| Cc1ccc(CNC(=O)c2ccc(CSCc3c(F)cccc3Cl)o2)cc1 | -4% |
| CCOC(=O)C1CCN(C(=O)c2ccc3c(c2)sc2nc(-c4ccc(OC)cc4)cn23)CC1 | 29% |
| CCc1cc(=O)[nH]c(SCc2nc(-c3cccc(Cl)c3)no2)n1 | 2% |
| Cc1ccc(C)c(OCCn2cc(C(=O)c3cccs3)c3ccccc32)c1 | -2% |
| COc1ccc(-c2cccc(NS(=O)(=O)c3cc(C(F)(F)F)ccc3Cl)c2)nn1 | 0% |
| COc1ccccc1NC(=O)c1cc2c(n(-c3ccc(C)cc3)c1=O)CC(C)(C)CC2=O | -1% |
| Cc1ccc2c(=O)cc(C(=O)Nc3sc4c(c3C(=O)NCc3cccnc3)CCCC4)oc2c1C | 0% |
| CC(=O)c1cccc(Nc2ccc3cc(S(=O)(=O)N4CCCC4)ccc3n2)c1 | 8% |
| O=c1c2oc3ccccc3c2n(Cc2ccc(Cl)cc2)c(=O)n1Cc1ccco1 | 7% |
| CCCCCCc1cc2cc(-c3nnc(-c4cccc(Cl)c4)o3)c(=O)oc2cc1O | 17% |
| Cc1c(NC(=O)c2cccc3c(Cl)cccc23)cccc1-c1nc2ccccc2o1 | 17% |
| Cc1ccc(NC(=O)c2nnn(Cc3ccccc3)c2N)cc1C | -25% |
| CC1CCn2c(nc3cc(C(=O)NCc4ccc(OC(C)C)cc4)ccc32)C1 (stereo not drawn) | -41% |
| CCCCN(CC)CCCNC(=O)c1nn(C)c2c1CSc1ccccc1-2 | -5% |
| Cc1ccc(C)c(NC(=O)Cn2nc(C)c3nn(-c4ccc(Cl)cc4)c(C)c3c2=O)c1 | 1% |
| CCOc1ccc2nc(N3CCCC(C(=O)NCc4ccccc4OC)C3)sc2c1 (stereo not drawn) | -15% |
| COC(=O)c1c(-c2cccs2)csc1NC(=O)COc1ccccc1 | -67% |
| COc1nnc(-c2ccc(N3CCCCC3)c(NC(=O)c3ccccc3Cl)c2)c2ccccc12 | ? |
| CCN(CC)c1ccc(NC(=O)c2cc(S(=O)(=O)N3CCc4ccccc43)cn2C)c(C)c1 | -5% |
| Cc1ccc(-n2ncc3c(NNC(=O)c4ccccc4C)ncnc32)cc1 | 0% |
| COC(=O)CCN(C(=O)C1CCN(S(=O)(=O)c2c(C)noc2/C=C/c2ccccc2F)CC1)c1ccccc1 | 0% |
| Cc1ccc(Cl)cc1NC(=O)CSc1nccn1C | -3% |
| CCCN(Cc1cccs1)C(=O)Nc1cc(C)ccc1OC | -2% |
| COc1ccc(CC(=O)NCc2ccc3c(c2)CCN3C(=O)c2ccc(C)cc2)cc1OC | 5% |
| CCOc1ccccc1NC(=O)Cn1cnc2c1c(=O)n(C)c(=O)n2C | -1% |
| Cc1c(C(=O)N2CCOCC2)oc2c1-c1nn(CC(=O)NCc3cccc(Cl)c3)cc1CC2 | 13% |
| COc1ccccc1CNC(=O)CCC1N=C2c3ccccc3N=C(SCc3ccc(C)cc3C)N2C1=O (stereo not drawn) | ? |
| COc1cc(Cl)c(NS(=O)(=O)c2ccc(-c3cnc(C4CC4)o3)cc2)c(OC)c1 | 24% |
| Cc1cccc(CNC(=O)CCCN2C(=O)CCn3nc(-c4cn(C)c5ccccc45)cc32)c1 | -12% |
| COCCNC(=O)CN1C(=O)COc2ccc(S(=O)(=O)N3CCCC3)cc21 | -1% |
| COCCNC(=O)CCn1c(=O)[nH]c2cc(OC)c(OC)cc2c1=O | 1% |
| CC(=O)N1CCc2cc(CNC(=O)Nc3cc(Cl)ccc3C)ccc21 | -13% |
| COc1ccc(-n2ncc(C(=O)N3CCN(c4ccccn4)CC3)c2C2CCN(C(=O)OC(C)(C)C)CC2)cc1 | 3% |
| NC(=O)C1CCN(c2ncnc3c2cnn3-c2ccccc2)CC1 | -19% |
| Cc1cc(OCCn2c(C3CC(=O)N(Cc4ccc(F)cc4)C3)nc3ccccc32)ccc1Cl (stereo not drawn) | -1% |

An excerpt from above in order of their number in miR-21 reporter, lowest first.
| SMILES | miR-21 reporter |
| --- | --- |
| COC(=O)c1c(-c2cccs2)csc1NC(=O)COc1ccccc1 | -67% |
| NC(=O)C1CCN(c2ncnc3c2cnn3-c2ccccc2)CC1 | -19% |
| Cc1c(C(=O)N2CCOCC2)oc2c1-c1nn(CC(=O)NCc3cccc(Cl)c3)cc1CC2 | 13% |

(further entries)
| SMILES | miR-21 reporter |
| --- | --- |
| O=C(Nc1ccc(C(=O)N2CCCCC2)cc1)c1nsc2ccccc12 | -28% |
| CCOC(=O)c1c(C)[nH]c(C)c1S(=O)(=O)N1CCCC(C(=O)NCc2ccc(N(C)C)cc2)C1 (stereo not drawn) | -3% |
| COc1cccc(CNC(=O)c2ccc(-n3c(C)cc4c3CCC(C)C4)cc2)c1 (stereo not drawn) | 28% |
| CC(C)c1ccc(C2c3c(oc4ccc(Cl)cc4c3=O)C(=O)N2CCCN2CCOCC2)cc1 (stereo not drawn) | 1% |
| CCc1ccc(NC(=O)CCc2c(C)nn(-c3ccc(N4CCCC4)nn3)c2C)cc1 | -25% |
| CCOc1ccc(NC(=O)c2c(Nc3ccccc3C)sc(C(=O)c3ccc(Cl)cc3)c2N)cc1 | ? |
| CCOCCc1nn2c(=O)cc(COC(=O)c3ccccc3NC(=O)c3cccs3)nc2s1 | 0% |
| CCOc1ccc(N(CC)S(=O)(=O)N2CCCC(C(=O)Nc3cc(Cl)ccc3OC)C2)cc1 (stereo not drawn) | 1% |
| Cc1nc2c(-c3ccccc3)c(C)nn2c(C)c1CCC(=O)NCc1ccccc1 | 2% |
| Cc1cccc(NC(=O)CS(=O)(=O)c2cccc3nsnc23)c1 | 2% |
| Cn1nnnc1SCCCNCc1cccc(OCc2ccccc2Cl)c1 | -7% |
| COc1ccc(C(=O)n2nc(-c3ccco3)nc2NCc2cccs2)cc1 | -26% |
| Cc1ccc(/C=C/c2onc(C)c2S(=O)(=O)N2CCC(C(=O)NCc3ccc(OC(C)C)cc3)CC2)cc1 | -3% |
| COC(=O)c1c(NC(=O)/C(C#N)=C/c2ccccc2)sc2c1C(C(=O)OC)CC2 (stereo not drawn) | -5% |
| Cc1nn(C)c2c1c(C(F)(F)F)cc(=O)n2C(C)C(=O)Nc1ccccc1F (stereo not drawn) | 12% |
| COc1ccccc1C(=O)Nc1cc2c(cc1N1CCCCC1)n(C)c(=O)n2C | 3% |
| Cc1nc(-c2ccccc2)sc1CCNC(=O)C(=O)Nc1ccc(F)c(Cl)c1 | 6% |
| Cc1ccc(C)c(NC(=O)CCn2nc(C)c3c(C)n(-c4ccccc4)nc3c2=O)c1 | 2% |
| Cc1cc(NC(=O)c2cccnc2)cc(-c2nc3cc(Cl)ccc3o2)c1O | -7% |
| CC(=O)c1ccc(N2C(=O)N(CC(=O)c3ccc(C)cc3)c3ccccc3S2(=O)=O)cc1 | 17% |

Ordered by formula weight (low to high): 3 of the compounds above.
| SMILES | miR-21 reporter |
| --- | --- |
| Cc1cccc(NC(=O)CS(=O)(=O)c2cccc3nsnc23)c1 | 2% |
| CCOc1ccc(N(CC)S(=O)(=O)N2CCCC(C(=O)Nc3cc(Cl)ccc3OC)C2)cc1 (stereo not drawn) | 1% |
| CCOc1ccc(NC(=O)c2c(Nc3ccccc3C)sc(C(=O)c3ccc(Cl)cc3)c2N)cc1 | ? |

(further entries)
| SMILES | miR-21 reporter |
| --- | --- |
| COc1ccc(Cl)cc1C(=O)Nc1c2c(nn1-c1ccc(Cl)cc1)CS(=O)(=O)C2 | -1% |
| COc1ccc(-c2nc3ccccc3n3c(-c4cccc(C)c4)c4c(=O)n(C)c(=O)n(C)c4c23)cc1OC | -11% |
| CCOC(=O)c1cc(-c2ccccc2)n(CCC(=O)NC2CCCCC2)c1C | 7% |
| Cc1ccccc1CCNC(=O)c1ccc2c(c1)nc1n2CCC(C)C1 (stereo not drawn) | -45% |
| COc1ccc(OCC(=O)Nc2cc(-c3cccc(Cl)c3)nn2-c2ccccc2)cc1 | -38% |
| Cc1cccc(OCC(=O)Nc2ccc3oc(-c4ccccc4F)nc3c2)c1 | -19% |
| COc1ccccc1NC(=O)CSc1nnc(-c2ccccc2C)o1 | -45% |
| COc1cc(OC)cc(C(=O)Nc2ccc(-c3nc4ccccc4s3)c(C)c2)c1 | -27% |
| CCOc1ccc(Cn2nnc(C(=O)Nc3ccc(Cl)cc3)c2N)cc1 | -3% |
| Cc1ccc(NC(=O)c2cc(S(=O)(=O)N3CCCCC3)c[nH]2)cc1N(C)C | -5% |
| Cc1ccc(C2C=C(c3ccccc3)Nc3nc(NS(C)(=O)=O)nn32)cc1 (stereo not drawn) | 1% |
| CCc1cccc(NC(=O)CCn2c(=O)c3cccn3c3cccnc32)c1 | -1% |
| O=C(CSc1nc2ncccc2[nH]1)Nc1cc(F)ccc1F | -2% |
| Cc1ccc(NC(=O)CSc2nnc(NC(=O)NC3CCCCC3)s2)cc1 | -38% |
| CCc1c(C)nc(SCc2nc(-c3ccccc3)no2)[nH]c1=O | -11% |
| Cc1ccc(Nc2sc(C(=O)c3ccccc3)c(N)c2S(=O)(=O)c2ccccc2)cc1Cl | 20% |
| Cc1ccc(NC(=O)C(=O)NCC(c2cccnc2)N2CCc3ccccc3C2)cc1 (stereo not drawn) | -58% |
| Cc1ccc(NC(=O)/C=C\C(=O)N(c2ccc(C(C)C)cc2)C(C(=O)NCc2ccco2)c2ccc(Cl)cc2)cc1 (stereo not drawn) | 23% |
| Cc1ccc(C(=O)N(Cc2ccco2)Cc2sccc2C)cc1 | 1% |
| CCOc1ccc(-c2nonc2NC(=O)c2oc3ccc(CC)cc3c2C)cc1 | 1% |
| Oc1c(C(c2ccc(F)cc2)N2CCOCC2)sc2nc(-c3ccco3)nn12 (stereo not drawn) | 3% |
| O=C(NCc1ccccc1Cl)c1ccc(Cn2c(SCc3ccccc3)nc3cccnc32)cc1 | -5% |
| COc1ccc(-n2nc(C(=O)N3CCCCC3)c3c4ccccc4n(C)c3c2=O)cc1Cl | -3% |
| COCC(=O)N1CCc2cc(OC)c(OC)cc2C1COc1ccc2c(C)cc(=O)oc2c1 (stereo not drawn) | 2% |
| Cc1ccc(C(=O)c2sc(Nc3ccc(F)cc3)nc2N)c(C)c1 | 23% |
| Cc1ccc(OCC(=O)OCc2cc(=O)n3nc(C4CC4)sc3n2)cc1C | 6% |
| COCC(=O)N1c2nc(C(C)C)nn2C2(CCCCC2)[C@@H]2CCCC[C@@H]21 | 13% |
| O=C(Nc1cc(Cl)cc(Cl)c1)c1cc(S(=O)(=O)NC2CCCC2)ccc1F | 30% |
| CCOC(=O)N1CCN(S(=O)(=O)N2CCCC(C(=O)NCc3cc(Br)ccc3OC)C2)CC1 (stereo not drawn) | 11% |
| COc1ccc(NCc2cccn2-c2nnc(N3CCOCC3)s2)c(OC)c1 | -11% |
| Cc1cc(C)c2oc(C(=O)Nc3ccc(S(=O)(=O)Nc4ncccn4)cc3)cc(=O)c2c1 | -43% |
| Cc1ccc(C)c(OCCn2c(CCNC(=O)C3CCCCC3)nc3ccccc32)c1 | -26% |
| Cc1ccc(Cn2c(=O)n(CCc3ccccc3)c(=O)c3sc4ccccc4c32)cc1 | -15% |
| COC(=O)c1ccccc1NC(=O)c1cc(CN2CCOCC2)on1 | -10% |
| Cc1cccc(-n2ncc3c(N4CCCCCC4)ncnc32)c1 | 15% |
| O=C(Nc1c(C(=O)Nc2ccc(F)cc2)oc2ccccc12)c1cc2ccccc2o1 | -15% |
| CC(=O)c1cccc(NC(=O)c2cc3c(s2)-c2c(C)cccc2OC3)c1 | -1% |
| COc1ccc(-c2nc(-c3ccccc3)c(-c3ccc(F)cc3)[nH]2)c(OC)c1C | 15% |
| COc1ccc(CC(=O)NCCc2csc(-c3cccc(F)c3)n2)cc1OC | -5% |
| COc1ccccc1CNC(=O)c1cccc(Nc2nc3ccccc3n3nnnc23)c1 | -20% |
| O=C(Nc1ccc2nc(SCC(=O)N3CCc4ccccc43)sc2c1)c1cccc(F)c1 | -3% |
| CCOC(=O)c1cc2c(=O)n3ccccc3nc2n(Cc2ccco2)c1=NC(=O)c1cccc(Br)c1 | -5% |
| Cc1ccc(NC(=O)N2CCC3(CC2)Oc2ccccc2C(=O)N3Cc2ccc(F)cc2)cc1 | 14% |
| CCc1ccccc1NC(=O)CN(Cc1ccccc1)S(=O)(=O)c1ccc2nc(C)sc2c1 | -2% |
| CCOC(=O)c1c(NC(=O)CSc2cn(CCNC(=O)c3ccccc3F)c3ccccc23)sc2c1CCC2 | 3% |
| COC(=O)c1n[nH]n(-c2ccccc2)c1=O | 0% |
| Cc1cccc(C)c1NC(=O)CCS(=O)(=O)c1ccc2c(c1)n(C)c(=O)c(=O)n2C | -1% |
| CCc1ccc2occ(CC(=O)Nc3c(C(=O)Nc4ccc(OC)cc4)oc4ccccc34)c2c1 | -13% |
| CCOC(=O)c1cccc(NC(=O)c2cc(S(=O)(=O)N3CCCC3)cn2C)c1 | 0% |
| COc1ccc(CSc2nc3ccncc3n2CC(=O)Nc2ccc(C)c(F)c2)cc1 | -22% |
| CS(=O)(=O)N1CCC(N2CCN(Cc3ccc(F)cc3)C(=O)C2=O)CC1 | 0% |
| CCOc1ccc(NC(=O)c2oc3ccccc3c2NC(=O)COc2cccc(OC)c2)cc1 | -2% |
| COCCNC(=O)CCn1c(=O)c2cc(OC)c(OC)cc2n(CC(=O)Nc2ccc(F)c(Cl)c2)c1=O | 1% |
| Cn1nc(C(=O)Nc2cccc(C(F)(F)F)c2)c2c1-c1ccccc1S(=O)(=O)C2 | -7% |
| COCCNC(=O)c1ccc2c(=O)n(CCOC)c(SCC(=O)c3c[nH]c4ccccc34)nc2c1 | 7% |
